Bioassay records (PubChem)
HPGD inh: HPGD (human) dehydrogenase inhibition; P15428; purified HPGD, NADH fluorescence kinetic, PGE2 substrate; AID 894; Potency, µM, inactives show at the top dose activity change, negative = inhibition, usual class: inhibitors; 4.3% of 150,000 active; active = well fitted inhibition curve with a large enough effect (not every such curve was filed as active); inconclusive = small, poorly fitted or top-dose-only effect, or another doubt; inactive = no such curve, though single readings can be large or run the other way;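 also: top concentration of the series not given in the record; plate controls included wells without enzyme; inactives centre near -10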
Target sequence (P15428 whole entry, looked up): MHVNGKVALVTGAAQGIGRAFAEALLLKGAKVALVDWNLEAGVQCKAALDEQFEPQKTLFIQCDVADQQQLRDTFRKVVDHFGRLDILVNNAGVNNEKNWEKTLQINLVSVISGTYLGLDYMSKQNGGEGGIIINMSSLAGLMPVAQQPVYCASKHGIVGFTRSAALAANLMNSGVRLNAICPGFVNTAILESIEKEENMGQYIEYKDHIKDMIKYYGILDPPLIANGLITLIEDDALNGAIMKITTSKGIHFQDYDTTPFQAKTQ
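20 nM HPGD preincubated 15 min at room temperature with compound in 50 mM Tris-HCl pH 8, 0.01% Tween 20. Started with 1 mM NAD+ and 30 uM prostaglandin E2; NADH fluorescence (360/450 nm) read 5 times over 30-s intervals, last minus first.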
* hit, by the source's call; ? = inconclusive; & = joins results of further samples. % is scaled to controls: 0 for no effect and ±100 for the full control effect; potency is read from the fitted curve at half-maximal effect. An excerpt, so the mix of outcomes need not match the whole.

HPGD inh	molecule
-17.0%	Cc1ccsc1/C=N/NC(=O)c1ccco1
-7.1%	CC(C)NC(=O)COc1ccc(S(=O)(=O)N2CCOCC2)cc1
15.8µM*	CN(C)C(=O)c1ccc(Oc2ccc(C(=O)N(C)C)cc2)cc1
-17.2%	COc1cccc(-c2csc(N3CCN(CC(=O)NNC(=O)c4ccc(Cl)cc4)CC3)n2)c1
?	Nc1cccc(-c2nc3ccc(N)cc3s2)c1
-9.3%	COc1ccc(-c2[nH]c(-c3ccc(C)cc3)nc2SCC(=O)Nc2nccs2)cc1
-4.2%	COc1ccc(-n2c(Cc3cccn3C)nnc2SCC(=O)Nc2ccc(C)c(Cl)c2)cc1
-17.8%	CCOC(=O)C1CCCN(C(=O)c2cc(Nc3ccc(OC)cc3OC)nc3ccccc23)C1 (stereo unspecified)

Records above that bear a hit mark in HPGD inh:
HPGD inh	molecule
15.8µM*	CN(C)C(=O)c1ccc(Oc2ccc(C(=O)N(C)C)cc2)cc1

The results go on.
HPGD inh	molecule
-8.4%	Cc1noc(C)c1C(=O)N1CCC2(CCN(C(=O)Nc3ccccc3)CC2)CC1
-5.7%	Brc1ccc(-c2csc(NC3=NCCCCC3)n2)cc1
-10.6%	CC1(OC(=O)c2ccco2)C(=O)C=C2C=C(c3ccc(C#N)cc3)OC=C2C1=O (stereo unspecified)
?	COc1ccc(N/C(=C(/C(Cl)=C(Cl)Cl)[N+](=O)[O-])n2nnc3ccccc32)cc1OC
-7.5%	Cc1c(C(=O)N/N=C/c2ccccc2)sc(=S)n1C
-24.7%	COc1cnc(SCc2c(Cl)cccc2Cl)nc1Cl
-3.5%	O=C(NCc1ccco1)C1(c2ccccc2)CCCC1
?	CCCn1c(=O)[nH]c(=O)c2c1nc(-c1ccc(OC(F)F)c(OC)c1)n2CCOC
-16.4%	Cc1cccn2c(=O)c(C=NCCO)c(NCc3ccco3)nc12
-11.8%	c1cncc(-c2noc(C34CC5CC(CC(C5)C3)C4)n2)c1
-11.7%	Cc1ccccc1C(=O)c1cccn1CC(=O)O
-8.3%	Cn1nc([N+](=O)[O-])nc1Oc1ccc(C(C)(C)C)cc1
?	CCOC(=O)c1[nH]c2ccc(OC)cc2c1NC(=O)CN1CCN(c2ccccn2)CC1
-2.3%	Cc1ccc(S(=O)(=O)N2CCC(=O)N(CCOCc3cccc(C(F)(F)F)c3)CC2)cc1
-13.2%	CC(C)(C)c1ccc(-c2nc(NCc3cccnc3)c3ccccc3n2)cc1
-1.8%	O=C(c1ccc(Cl)c(S(=O)(=O)N2CCCCCC2)c1)N1CCN(CCO)CC1
?	O=C1NN(c2ccccc2)C(=O)/C1=C/c1coc2ccccc2c1=O
6.5%	CCOc1ccc(/C=N/NC(=O)c2ccc(Cn3cc(Br)cn3)o2)cc1
-10.4%	Cc1cc(N)n2ncc(-c3ccc(F)cc3)c2n1
14.1µM*	CCOc1ccc2nc(SCC(=O)c3ccc(C)s3)sc2c1
-0.9%	CCOC(=O)C(C(=O)Nc1ccc(C)cc1)C1CCCCC1 (stereo unspecified)
-11.2%	Cc1ccc(C(=O)Nc2ccccc2C(=O)N2CC3(C)CC2CC(C)(C)C3)cc1 (stereo unspecified)
-15.0%	CCc1nnc(NC2=NCCC2)s1
-23.4%	COc1cccc(NC(=O)COc2ccc(N3CC(C(=O)NCC(C)C)CC3=O)cc2)c1 (stereo unspecified)
-0.8%	CCC1(CC)C(=O)N(C)C(=O)NC1=NCc1ccccc1
-1.8%	Cc1cccc(NC(=O)CN2CCCN(S(=O)(=O)c3ccc(Br)s3)CC2)c1
-9.6%	Cc1ccccc1NS(=O)(=O)c1cc(C(=O)NCCC2=CCCCC2)ccc1C
0.447µM*	CN(c1ccc(C(=O)N2CCCCC2)cc1)S(=O)(=O)c1ccccc1
0.6%	COc1cc(C(C[N+](=O)[O-])c2c(C)[nH]c3ccccc23)ccc1O (stereo unspecified)
-9.0%	c1ccc(CN2CCN(C(c3ccccc3)c3nnnn3Cc3ccccc3)CC2)cc1 (stereo unspecified)
-22.7%	COC(=O)/C=C1\SC(=NC(=O)c2cccc(Cl)c2)NC1=O
-15.8%	Cc1ccc(C)c(N/C(N)=N/c2nc(C)cc(C)n2)c1
15.8µM*	COc1cccc(CSc2nnc(CSc3nc4nc(C)cc(C)n4n3)s2)c1
28.2µM*	CC(=O)Nc1cccc(Oc2ncnc3scc(-c4ccc(C)cc4)c23)c1
-20.8%	CN1c2ccccc2C(C)(C)C12CC(c1cccc(S(=O)(=O)N3CCCC3)c1)=NO2 (stereo unspecified)
-20.3%	CNC(=S)N/N=C/c1cc(C)n(-c2ccc(Cl)c(Cl)c2)c1C
-22.4%	Cc1ccc2cc(CN(Cc3ccccc3)Cc3nnnn3C3CCCC3)c(=O)[nH]c2c1
-6.3%	COCC(=O)N1CCC2(CC1)CCN(C(=O)Nc1cccc(C#N)c1)CC2
-5.0%	Cc1ccc(S(=O)(=O)N2CCC(=O)N([C@H](COCc3cccc(C)c3)Cc3ccccc3)CC2)cc1
-7.7%	CCn1c(=S)[nH]c2cc(C(=O)OC)ccc2c1=O
-19.6%	COc1ccc(NS(=O)(=O)c2ccc3c(c2)Cc2ccccc2-3)cn1
31.6µM*	O=C(NCc1ccco1)c1ccc2ccccc2c1
-1.7%	COC(=O)COc1ccsc1C(=O)OC
-12.6%	CCn1cc(C(=O)NC2CCC(C)CC2)c(=O)c2cc(S(=O)(=O)N3CCCCC3)ccc21 (stereo unspecified)
15.8µM*	CC(C)CNC(=O)CSc1ccc(Cl)cc1
-10.5%	Cc1ccc(NCc2nnc(SCC(=O)NCc3ccco3)n2CC2CCCO2)cc1Cl (stereo unspecified)
-14.3%	CSc1ccc(/C=N/NC(=O)c2cccc(O)c2)cc1
-4.5%	Cc1ccc2c(c1)nnn2C1CCN(CC(=O)Nc2ccccc2N2CCOCC2)CC1
?	Cc1ccc2nc(-c3ccc(NC(=O)COC(=O)c4ccco4)cc3)sc2c1
?	COC(=O)Cn1c(=NC(=O)c2cc(OC)cc(OC)c2)sc2cc(OC)ccc21
-0.4%	C[C@@H]1CC2C3CCC4=CC(=O)C=CC4(C)[C@@]3(F)[C@@H](O)CC2(C)[C@@]1(O)C(=O)CO (stereo partly specified)
-15.3%	Cc1cccc(NC(=O)c2cc3n(n2)C(C(F)(F)F)CC(C2CC2)N3)c1C (stereo unspecified)
-7.2%	O=C(CSc1nnc(CNC(=O)c2cccs2)o1)NCCc1ccccc1
-4.2%	Cc1ccccc1NC(=S)NCCc1ccc(S(N)(=O)=O)cc1
-7.7%	CCOc1ccc(N(CC(=O)Nc2ccc(OC)cc2)S(=O)(=O)c2c(C)noc2C)cc1
-9.1%	CCOc1cc(Br)c(C(=O)O)cc1OC

Further records:
HPGD inh	molecule
-24.5%	O=C(CSc1nc2ccccc2[nH]1)N1CCN(S(=O)(=O)c2ccc(Cl)cc2)CC1
4.2%	CN(C)CC[C@@H](c1ccc(Br)cc1)c1ccccn1
10µM*	COc1ccc(CCN2CC34C=CC(O3)C(C(=O)NCc3ccccc3)C4C2=O)cc1OC (stereo unspecified)
?	CCCCCc1c(O)c2ccccc2[nH]c1=O
-22.9%	Cc1ccc(O)c(C(=O)/C=C/c2ccc3c(c2)OCCCO3)c1
?	COc1cc(/C=N/Nc2ccc3ccccc3c2)ccc1OC(=O)c1ccco1
-21.2%	Cc1ccc(N2NC(C)(c3cccs3)NC2=S)cc1 (stereo unspecified)
3.2%	CCC1CCC(NC2CCCCNC2=O)CC1 (stereo unspecified)
-4.2%	Cc1ccc(CNC(=O)c2ccc(CN3CCOCC3)cc2)cc1
-6.3%	CC1=CC(=Nc2c(C)n(C)n(-c3ccccc3)c2=O)C=C(C)C1=O
-6.6%	CC(/C=N/N1CCN(c2ccccc2)CC1)=C\c1ccccc1
?	Nc1ccc2nc(-c3ccc(N)c(Cl)c3)[nH]c2c1
-6.4%	Cc1cc(C)c(OCC(=O)Nc2ccccn2)c([N+](=O)[O-])c1
-3.3%	C=CCn1c(SC(CCO)C(=O)NCc2ccco2)nc2sc3c(c2c1=O)CCC3 (stereo unspecified)
-7.7%	Cc1c(NC(=O)OC(C)C)sc(=S)n1C
2.3%	CC(C)N(C(=O)Cn1c(-c2ccccc2Cl)nc2ccccc21)c1ccccc1
-19.1%	CCSC1=N/C(=C\c2ccc(-c3ccccc3[N+](=O)[O-])o2)C(=O)S1
-12.3%	Cc1ccc(OCn2c(=O)sc3ccccc32)cc1
-11.2%	NC(=NC1C2CC3CC(C2)CC1C3)Nc1ccc(I)cc1 (stereo unspecified)
-1.8%	N#CCCn1c(=O)cnc2cnc(OCc3ccccc3)nc21
-5.8%	CCNc1ncc2nc(-c3cccc(C#N)c3)c(=O)n(CCC#N)c2n1
-1.0%	CC(C)Oc1ccc(C(=O)NNC(=O)c2ccccc2C(=O)O)cc1
?	Cc1cccn2c(=O)c(C=Nc3ccccc3)c(NCCO)nc12
-3.7%	COc1ccc(/C=C/C(=O)N[C@@H](C)C(=O)O)cc1
-3.0%	O=C(CCCCCN1C(=O)CCC1=O)Nc1ncn[nH]1
-3.6%	Cn1c(SCC(=O)N2CCN(S(=O)(=O)c3ccccc3)CC2)nc2ccccc21
-11.0%	CC12CCC(C(=O)NCCN3CCCCC3)(CC1=O)C2(C)C (stereo unspecified)
-3.8%	Oc1c(Cl)cc(Cl)cc1C=Nc1ccc(Br)cc1
-11.3%	CCOC(=O)N1CCN(CC(=O)Nc2ccc([N+](=O)[O-])cc2C(=O)Nc2ccccc2F)CC1
-6.9%	COc1ccc(-n2c(Cc3cccn3C)nnc2SCC(=O)Nc2ccccc2C)cc1
?	COc1ccc2[nH]c3c(NCCN4CCCCC4)ncnc3c2c1
-0.8%	CC(C)OCCCNc1nc2c([nH]1)c(=O)n(C)c(=O)n2C

Part of the list above, bar-delimited:
SMILES | HPGD inh
CC12CCC(C(=O)NCCN3CCCCC3)(CC1=O)C2(C)C (stereo unspecified) | -11.0%
Oc1c(Cl)cc(Cl)cc1C=Nc1ccc(Br)cc1 | -3.8%

Following part
HPGD inh	molecule
-14.9%	O=C(OCc1nc(-c2ccccc2)oc1COC(=O)c1ccco1)c1ccco1
-8.5%	CC(=O)CC(C)C
-25.9%	CC(=O)c1cc2c(C)cc(=O)oc2cc1O
-16.5%	COc1ccc(C(=O)CSc2ccc(-c3ccco3)nn2)cc1
-7.5%	CC(=O)[C@@]1(O)[C@H](O)CC2C3CCC4CC(O)CC[C@]4(C)C3CC[C@@]21C (stereo partly specified)
-6.6%	COc1ccccc1-c1nccc(-n2ccnc2)n1
-16.4%	COc1ccc(Oc2ccc(/C=C/C(=O)c3cccc(OC)c3)cc2[N+](=O)[O-])cc1
?	CC(C)OC(=O)c1ccc(Cn2nnc3ccccc3c2=O)cc1
-20.4%	Cc1cc(C)c2c(c1)cc(C)c1nnc(SCC(=O)N3CCCc4ccccc43)n12
-3.3%	COc1cc(C2SCCCCCCCCCCSC(c3ccc(O)c(OC)c3)SCCCCCCCCCCS2)ccc1O (stereo unspecified)
4.9%	CC(C)N(Cc1ccccc1)C(=S)Nc1ccc(OC(F)F)cc1
-10.0%	Cc1ccc2cccc(OCCOCCOc3ccccc3Br)c2n1
2.8%	CC(=O)N[C@@H](CSC/C=C(\C)CCC=C(C)C)C(=O)O
-0.9%	Cc1ccc(C(=O)COC(=O)CCC(=O)Nc2ccccc2Cl)cc1[N+](=O)[O-]
5.01µM*	Cc1ccc(O)c(C2=NOC(O)(C(F)(F)C(F)F)C2)c1 (stereo unspecified)
2.5%	OCCOc1nnnn1-c1ccccc1

Retrieved by compound from above, five records:
HPGD inh	molecule
-20.4%	Cc1cc(C)c2c(c1)cc(C)c1nnc(SCC(=O)N3CCCc4ccccc43)n12
?	Cc1ccc2nc(-c3ccc(NC(=O)COC(=O)c4ccco4)cc3)sc2c1
5.01µM*	Cc1ccc(O)c(C2=NOC(O)(C(F)(F)C(F)F)C2)c1 (stereo unspecified)
-11.7%	Cc1ccccc1C(=O)c1cccn1CC(=O)O
?	CC(C)OC(=O)c1ccc(Cn2nnc3ccccc3c2=O)cc1

The results go on.
HPGD inh	molecule
-11.8%	COc1ccccc1CC(NC(C)=O)C(=O)NC1CCN(c2nnnn2-c2ccccc2)CC1 (stereo unspecified)
14.1µM*	COc1ccccc1-c1cc(C(=O)NCc2cccs2)no1
-7.9%	COc1ccccc1S(=O)(=O)Cc1ccc(C(=O)NCCN2CCCC2)o1
-25.3%	Cc1nn(C(=O)c2cccs2)c(N)c1-c1ccccc1
-12.6%	CC(C)NC(=O)c1ccc(N2CCOCC2)nc1
-18.2%	CC(/C=C/c1ccccc1)=N\Nc1nc(-c2ccccc2)cs1
-6.4%	CCOC(=O)c1cnc(SCC(=O)Nc2sc(C)c(C)c2C#N)nc1N
-7.1%	NC(=O)COC(=O)c1ccc2c(c1)S(=O)(=O)N=C1CCCCCN12
-18.5%	CC(C)Nc1nnc(SCC(=O)c2c(N)n(Cc3ccccc3)c(=O)n(C)c2=O)s1
-20.3%	O=C(COc1ccccc1Cl)Nc1nc(-c2cccs2)cs1
-18.2%	Cc1[nH]n(-c2ccccc2)c(=O)c1CCOC(=O)c1ccc(C(F)(F)F)cc1
-9.4%	CC(N=C1NS(=O)(=O)c2ccccc21)c1ccccc1 (stereo unspecified)
3.7%&-20.0%&-14.3%&-4.5%&4.3%	CN1CCN(CCCN2c3ccccc3Sc3ccc(C(F)(F)F)cc32)CC1
-5.2%	CCC1CC2CC(NC(C)=O)C1C2 (stereo unspecified)
-0.2%	COc1ccc(CCNC(=O)C2CCN(S(=O)(=O)c3cccc4nsnc34)CC2)cc1OC
-16.3%	CC1(C)N=C(C(=O)c2ccccc2)N(O)C1(C)O (stereo unspecified)
14.1µM*	O=c1cc(C(F)(F)F)nc(-c2ccccc2)[nH]1
-4.3%	CN1CCN(C(=O)C2(NC(=O)Nc3ccccc3Cl)CCCCC2)CC1
-3.4%	CCOC(=O)c1ccc(NC(=O)CCc2ccc(CC)o2)cc1
